StopGo reporter = FMDV 2A StopGo reporter, luciferase signal. AID 1159524. human cells with a luciferase reporter of 2A StopGo recoding; control for the full effect not named in the record. Potency, µM (doses to about 57.9 µM), for the others: at the highest dose signal change, negative = less light. 410,000 compounds, 1.2% hits; active = well fitted falling curve with a large enough effect; inconclusive = small, poorly fitted or top-dose-only effect; inactive = no such curve, though single readings can be large or run the other way; tested in HEK293T cells; also: % is scaled to controls: 0 for no effect and ±100 for the full control effect; nearly all actives have a fitted effect of over 45% in size; luciferase light after 4 h
MARV entry inh = blocks Marburg virus binding to or entry into cells; Marburg virus pseudotyped entry inhibition, cell reporter; control for the full effect not named in the record; about a third of the inactives were read at about 46 µM; Potency, µM (titrated, usually from 37.8 µM), for the others: at the highest dose activity change, negative = inhibition, hits mostly inhibitors; 300,000 compounds, 1.8% hits; AID 540276; active = well fitted inhibition curve with a large enough effect; inconclusive = small, poorly fitted or top-dose-only effect, or effect the other way; inactive = flat fitted curve, though single readings scatter; tested in HEK293 cells; about a fifth of its hits are not listed in these tables; also: % is scaled to controls: 0 for no effect and ±100 for the full control effect; luciferase read-out
RE007 growth inh = less growth of the S. pombe RE007 Vpr strain. Potency, µM (highest dose often 92.2 µM), for inactives: at the top dose activity change, negative = less growth. S. pombe RE007 Vpr strain, BacTiter-Glo ATP luminescence, 24 h; control for the full effect not named in the record. 360,000 compounds, 0.21% hits; active = well fitted falling curve with a large enough effect; inconclusive = small, poorly fitted or top-dose-only effect; inactive = no such curve, though single readings can be large or run the other way;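 also: % is scaled to controls: 0 for no effect and ±100 for the full control effect; nearly all actives have a fitted effect of over 50% in size; the assay follows cell death caused by Vpr and the record does not say whether a fall means rescue or toxicity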
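Fission yeast strain RE007, carrying one chromosomally integrated HIV-1 vpr copy, was seeded at OD 0.01 in PMG+AL medium with 23 nL pinned compound. After 24 h at 30 °C and 99% humidity, viability was read by BacTiter-Glo luminescence.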
Cruzain inh noDet = inhibitors of Trypanosoma cruzi cruzain without detergent | P25779 | purified cruzain, Z-FR-AMC fluorescence, no detergent | Potency, µM, without a hit: max response, negative = inhibition, most hits filed as inhibitors | 200,000 compounds, 2.3% hits | AID 1476;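 also: plate controls were enzyme without inhibitor for no effect and buffer without enzyme for full effect; nearly all actives have a fitted effect of over 40% in size; top concentration of the series not given in the record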
Target sequence (P25779 123-467 limits assumed): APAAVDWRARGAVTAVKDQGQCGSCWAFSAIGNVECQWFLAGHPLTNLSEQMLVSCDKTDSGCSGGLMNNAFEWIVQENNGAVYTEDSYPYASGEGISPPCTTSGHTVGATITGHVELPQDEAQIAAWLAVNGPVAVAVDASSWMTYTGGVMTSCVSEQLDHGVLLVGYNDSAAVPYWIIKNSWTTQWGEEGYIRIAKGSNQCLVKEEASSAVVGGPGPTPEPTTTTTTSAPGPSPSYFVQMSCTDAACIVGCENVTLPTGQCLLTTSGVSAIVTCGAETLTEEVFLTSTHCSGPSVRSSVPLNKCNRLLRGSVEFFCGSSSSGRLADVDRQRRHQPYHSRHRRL
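Detergent-free condition (0.00005% Triton X-100) in acetate buffer pH 5.5 with DTT. 1.5 nM enzyme and compound were pre-mixed 15 min, then 2 uM Z-FR-AMC substrate added; reaction progress from fluorescence change between first and third reads (60 s).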
Cruzain inh Det = blocks cruzain activity in presence of Triton detergent. Potency, µM, without a hit: max response, negative = inhibition, usual class: inhibitors. AID 1478. P25779. purified cruzain, Z-FR-AMC fluorescence, 0.01% Triton. 200,000 compounds, 0.43% hits;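 also: plate controls were neutral wells for no effect and buffer without enzyme for full effect; nearly all actives have a fitted effect of over 40% in size; top concentration of the series not given in the record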
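Read-out: AMC fluorescence (360 nm excitation, 450 nm emission), four reads over 2 min, first-to-third difference used. Conditions: cruzain 1.5 nM, Z-FR-AMC 2 uM, pH 5.5 acetate, 5 mM DTT, 0.01% Triton X-100.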
SARS PLP yeast = SARS-CoV PLP inhibition in yeast | S. cerevisiae expressing SARS-CoV PLpro, growth rescue; control for the full effect not named in the record | Potency, µM (titrated, usually from 32.9 µM), without a hit: top-dose activity, positive = growth rescue | 330,000 compounds, 0.19% hits | AID 485353; active means well fitted rising curve with a large enough effect; inconclusive means small, poorly fitted or top-dose-only effect; inactive means no such curve, though single readings can be large or run the other way; also: 0% is about no effect; nearly all actives have a fitted effect of over 55% in size; growth read by luminescence after 48 h
LASV entry inh = blocks Lassa virus binding to or entry into cells; Lassa virus pseudotype entry inhibition, cell reporter; control for the full effect not named in the record; Potency, µM (top dose mostly 37.9 µM), for inactives: at the top dose activity change, negative = inhibition, hits mostly inhibitors; 300,000 compounds, 1.2% hits; active means well fitted inhibition curve with a large enough effect; inconclusive means small, poorly fitted or top-dose-only effect, or effect the other way; inactive means flat fitted curve, though single readings scatter; tested in HEK293 cells; also: % is scaled to controls: 0 for no effect and ±100 for the full control effect; nearly all actives have a fitted effect of over 50% in size; luciferase read-out
NS1 inh = blocks influenza NS1 protein function. S. cerevisiae slowed by influenza A NS1, growth recovery by OD600. Potency, µM (doses to about 46.1 µM), without a hit: at the highest dose activity, positive = more growth. 270,000 compounds, 0.4% hits. AID 2326; active means well fitted rising curve with a large enough effect; inconclusive means small, poorly fitted or top-dose-only effect; inactive means no such curve, though single readings can be large or run the other way; also: nearly all actives have a fitted effect of over 50% in size
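In this qHTS, NS1 from influenza A is expressed in budding yeast, where it slows growth. Cells are switched from glucose to 2% galactose medium (pH 6.0, -URA), treated with compound, and growth recovery is read at OD600.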
* hit, by the source's call; ? = inconclusive; . = no result given; [ ] = another dose, or the depositor's remark. Unless noted, calls follow the shape of the dose curve; as a rule, active = well fitted curve in the direction sought with a large enough effect; inconclusive = small, poorly fitted or top-dose-only effect, or another doubt; inactive = no such curve, though single readings can be large; an effect the other way counts as inactive or inconclusive. Potency is read from the fitted curve at half-maximal effect.

SMILES	StopGo reporter	MARV entry inh	RE007 growth inh	Cruzain inh noDet	Cruzain inh Det	SARS PLP yeast	LASV entry inh	NS1 inh
CCCCNC(=O)[C@@H](c1ccccc1)N1Cc2ccccc2C1=O	2%	1%[46.1 µM]	.	5%	6.5%	.	4%[46.1 µM]	.
O=C(Nc1cccc2c1C(=O)NC2=O)c1ccccc1[N+](=O)[O-]	-5%	.	2%	.	.	1%	.	1%
CC(C)CCNC(=O)CN1C(=O)CN=C(c2ccccc2)c2ccccc21	10%	-5%[46.1 µM]	-19%	.	.	1%	5%	-1%
COc1cc(NC(=O)C23CC4CC(C2)CC(n2nnc(C)n2)(C4)C3)c(OC)cc1Cl	3%	-1%	-10%	?	3.6%	3%	1%	5%
Cc1coc(NC(=O)CSc2nc(-c3ccncc3)cc(C(F)(F)F)c2C#N)n1	3%	?	-8%	21%	-2.4%	-4%	-27%	-7%
CC(=O)OC1=Cc2c(ccc3ccc(=O)oc23)OC1(C)C	-9%	-9%	15%	-2%	-0.2%	-4%	0%	9%
COC(Cn1c(C)c(C(C)=O)c(C(C)=O)c1C)OC	3%	-1%	6%	-8%	5.1%	8%	19%	-5%
O=C1Nc2ccccc2C1(O)C/C(=N/O)c1ccccc1 (stereo not drawn)	32%[activator]	-11%[46.1 µM]	22%	.	.	0%	5%	.
CCCCCCSc1nnc2c(n1)OC(C)Nc1ccc(Br)cc1-2 (stereo not drawn)	-5%	?	.	-2%	-6.2%	.	2%[46.1 µM]	.
CN(C(=O)c1cccc(C#N)c1)c1nnc(-c2ccncc2)s1	-15%	3%	12%	3%	2.9%	1%	?	0%
O=c1cc(-c2ccco2)nc(SCc2cccc(Cl)c2)[nH]1	-9%	.	5%	.	.	3%	.	19%
COCCNC(=O)c1ccc(-n2c(SCc3ccncc3)nc3ccccc3c2=O)cc1	-7%	-11%[46.1 µM]	-27%	.	.	-5%	-4%	.
CCC(C)NC(=O)COCc1cc(-c2ccc3c(c2)OCO3)on1 (stereo not drawn)	19%	12%[46.1 µM]	-12%	.	.	0%	?	3%
CC1=C(C(=O)Nc2ccccc2)C(c2ccc(C(=O)O)cc2)n2nc(SCC(=O)c3ccc(C)cc3)nc2N1 (stereo not drawn)	47%[activator]	.	.	5%	2.1%	.	2%[46.1 µM]	.
COc1ccc(C(=O)NCCNc2ccc([N+](=O)[O-])cc2)cc1OC	-19%	4%	3%	.	.	4%	-2%	6%
Cc1ccc(NC(=S)N(C)N)cc1Cl	?	2%[46.1 µM]	-5%	.	.	-1%	2%[46.1 µM]	3%
O=c1cc(-c2ccccc2)nc(SCc2nc(-c3ccccc3Cl)no2)[nH]1	6%	.	.	?	2.6%	.	16%[46.1 µM]	.
O=C(NCc1nc(-c2ccccc2)no1)c1ccco1	9%	13%[46.1 µM]	.	-24%	-3.4%	.	30%[46.1 µM]	.
CC(=O)Oc1ccccc1/C=C/c1ccc2ccccc2[n+]1C	50%[activator]	.	-9%	.	.	-5%	.	-17%
COc1ccc([N+](=O)[O-])cc1NC(=O)CCSCCc1ccccn1	0%	?	-12%	.	.	-5%	-17%[46.1 µM]	.
O=C(CCC(=O)Nc1ccccc1Cl)N/N=C/c1ccccc1	18%	12%	2%	-3%	-1.6%	23%	0%	20%
COc1ccc(NC(=O)CN(C)C(=O)CNC(=O)C2CCCCC2)cc1	-4%	4%	-8%	.	.	4%	4%	8%
CC1(C)C2CC=C(/C=N/NC(=O)c3ccc(O)cc3)C1C2 (stereo not drawn)	-14%	10%[46.1 µM]	-7%	-1%	-0.8%	-5%	?	2%
COc1ccc(-c2cc(C(F)F)n3ncc(C(=O)N4CCN(C)CC4)c3n2)cc1	-1%	-10%	-14%	-17%	-11%	9%	-6%	11%
COC(=O)Cc1c(C)nc2nc(-c3ccco3)[nH]n2c1=O	-15%	?	-16%	-1%	-0.9%	-2%	5%	?
New compounds follow.
SMILES	StopGo reporter	MARV entry inh	RE007 growth inh	Cruzain inh noDet	Cruzain inh Det	SARS PLP yeast	LASV entry inh	NS1 inh
CCN(CC)CCCNC(=O)c1ccc(S(=O)(=O)Nc2ccc(C)c(C)c2)cc1	13%	?	-20%	.	.	-3%	-6%	.
CC1c2c([nH]c3ccccc23)CCC1C(=O)O (stereo not drawn)	-5%	28%	-3%	7%	-1.1%	6%	16%	22%
CC1CCN(CCc2nc3cc(NC(=O)COc4ccc([N+](=O)[O-])cc4)ccc3n2C)CC1	-23%	?	-7%	.	.	1%	?	-5%
COC(C[C@H](O)CC(=O)[C@H](C)OCc1ccccc1)OC	0%	.	1%	.	.	0%	.	3%
COc1ccc(NC(=O)/C=C/c2cc(Br)ccc2OC)cc1	-2%	12%	5%	-2%	-4.7%	0%	-5%	-1%
Cn1nccc1C(=O)N1CCCC(C(=O)c2cccc3ccccc23)C1 (stereo not drawn)	-6%	?	34%	.	.	-2%	?	-4%
CCOC(=O)NC(=O)CN1C(=O)NC(C)(c2ccccc2)C1=O (stereo not drawn)	16%	20%	8%	-4%	4.5%	6%	-7%	6%
Cn1c(Cn2c(=O)sc3ccccc32)nnc1SCC(=O)Nc1cccc(F)c1	0%	.	-2%	-9%	-3.1%	11%	.	3%
O=C(O)c1ccc(NS(=O)(=O)c2ccc(NC(=O)c3ccccc3Cl)cc2)cc1	5%	.	14%	.	.	0%	.	?
Cc1cc(=O)n2[nH]cc(C(=O)O)c2n1	.	-1%	-8%	-15%	0.2%	19%	21%	10%
COC(=O)c1sc2nc(CN3CCN(c4ccc(OC)cc4)CC3)[nH]c(=O)c2c1C	-3%	-5%	8%	10%	-0.3%	10%	-15%	18%
COc1cc2nc(NC(=O)c3ccco3)sc(=O)c2cc1OC	-8%	?	1%	.	.	-4%	13%[46.1 µM]	2%
Cc1ccnc(NC(=O)c2ccc([N+](=O)[O-])o2)c1	30%	?	?	2%	-2.7%	-12%	?	-77%
CCC(=O)Nc1c2c(nn1-c1ccc(OC)cc1)CS(=O)C2 (stereo not drawn)	0%	.	-19%	-2%	2.1%	-2%	.	3%
Cc1ccc(NC(=S)NC(=O)c2ccc(-c3ccccc3)cc2)cc1	-23%	4%	-7%	.	.	.	-9%	.
CCC(C)(C)NC(=O)CN(C(=O)C(=O)Nc1ccc2c(c1)OCCO2)C1CC1	40%[activator]	?	2%	.	.	-11%	17%	10%
COc1ccc(CNC(=S)Nc2cc(OC)ccc2OC)cc1	8%	3%	4%	-5%	-5.1%	-2%	6%	-8%
CC(C)c1ccc(OCCCN2CCCC2)cc1	-4%	.	7%	.	.	1%	.	6%
O=C(Nc1ccc(F)cc1F)N1CCN(C/C=C/c2ccccc2)CC1	-33%	.	-1%	2%	-2.4%	-1%	.	-52%
COc1ccc(C(=O)CSc2nc3[nH]ncc3c(=O)[nH]2)cc1	27%	12%[46.1 µM]	2%	.	.	-1%	23%	.
COc1ccc(NC(=O)CC(c2ccco2)C(C)C)cc1 (stereo not drawn)	29%	13%	-9%	.	.	-2%	?	1%
CCCCCCN1C2=NCCCN2c2ccccc21	?	.	-18%	.	.	-1%	.	-4%
CC(=O)Nc1ccc(NC(=O)CSc2cn(CC(=O)N3CCOCC3)c3ccccc23)cc1	-13%	.	-6%	.	.	3%	.	2%
CCn1cnc2c1c(=O)n(CC(=O)O)c(=O)n2Cc1ccccc1	-5%	-3%[46.1 µM]	8%	.	.	0%	4%[46.1 µM]	4%
O=C(OCc1ccccc1)c1ccc(-c2nnn(Cc3ccccc3F)n2)cc1	1%	0%[46.1 µM]	.	-8%	-0.3%	.	11%[46.1 µM]	.
More results follow:
SMILES	StopGo reporter	MARV entry inh	RE007 growth inh	Cruzain inh noDet	Cruzain inh Det	SARS PLP yeast	LASV entry inh	NS1 inh
Cc1nnc(NC(=O)CSc2nc3c(c(=O)n(C)c(=O)n3C)n2C(C)C)s1	11%	7%[46.1 µM]	-3%	.	.	0%	-17%[46.1 µM]	4%
CSCCC(NC(=O)c1cc([N+](=O)[O-])cc([N+](=O)[O-])c1)c1nc2ccccc2[nH]1 (stereo not drawn)	-21%	-18%	-10%	?	-14%	-2%	-1%	8%
O=C1c2ccccc2C(=O)N1CCCc1nc2ccccc2c(=O)n1-c1cccnc1	-25%	-10%[46.1 µM]	30%	-4%	-0.1%	7%	-3%	-14%
Cc1ccc(-n2nnnc2SCC(=O)c2cc(C)n(-c3cc(C)on3)c2C)c(C)c1	.	-13%	-16%	?	0.6%	11%	1.5µM*	?
CCOc1ccc(NC(=O)CN(C)C(=O)c2c(C)nn(-c3ccc(F)cc3)c2Cl)cc1OCC	-29%	-8%	-2%	.	.	?	-23%	.
Cc1cccc(N(Cc2cc3ccc(C)cc3[nH]c2=O)C(=O)c2ccco2)c1	-17%	.	-6%	.	.	0%	.	3%
CCOCCc1nn2c(=O)cc(CSCC(=O)Nc3cccc(C)c3C)nc2s1	-3%	.	3%	.	.	12%	.	-9%
Cc1ccc(CNC(=O)CSc2nc3c(sc4ccccc43)c(=O)n2CCCC(=O)NCCO)cc1	0%	12%[46.1 µM]	.	21%	1.1%	.	-16%[46.1 µM]	.
Cc1ccc(Nc2cc(C)nc(-c3ccccc3O)n2)cc1	32%[activator]	?	-3%	-2%	-14%	-27%	8%	-18%
O=C(NCc1ccccc1)c1cccc(COc2cccc(Cl)c2)c1	24%	-5%[46.1 µM]	?	1%	-1.8%	-14%	4%	-11%
O=c1oc2ccccc2cc1-c1csc(Cc2nc(-c3ccc(Br)cc3)cs2)n1	-16%	-20%	-2%	3.2µM*	2.4%	-8%	-28%	13%
COc1ccccc1/C=C1/C(=N/O)C2CCN1CC2	-1%	22%	-19%	-3%	2.2%	7%	?	11%
COCC(C)N=C1NN=C(c2ccc(NC(C)=O)cc2)CS1 (stereo not drawn)	15%	3%[46.1 µM]	1%	.	.	-1%	16%[46.1 µM]	.
CC1CC(C)CN(C(=O)CCC(=O)Nc2nnc(C3CCCCC3)s2)C1 (stereo not drawn)	-5%	.	3%	.	.	0%	.	8%
CC(=O)Nc1cccc(C(=O)OCC(=O)NC(=O)Cc2ccccc2)c1	42%[activator]	?	5%	.	.	6%	-1%	.
